BJeLR lethal: BJeLR cell viability loss | BJeLR (HRASV12) viability, CellTiter-Glo ATP luminescence, 48 h; reference of the scale not given here | inhibition, % (test concentration not listed) | 300,000 compounds, 0.17% hits | AID 1554;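 active = replicate mean above 50%; inconclusive = above 50% but judged a plate artefact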;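 also: 50 nL library stock added to about 25 µL; numbers are from one replicate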
Sa ugtP lethal: compounds lethal to S. aureus RN4220 ugtP deletion mutant; OD600 growth, 16 h; some inactives read as strong as hits; growth inhibition, % (concentration not given with the values); 330,000 compounds, 0.54% hits; AID 1259309;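 active = z-score under -3 and OD600 up to 0.15 on both plates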;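 also: plate controls were untreated wells for no effect and antibiotic for full effect; wells of about 80 µL received 100 nL stock; the first replicate is given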
Mtb hypoxia rep: inhibitors of hypoxia-regulated fluorescent reporter in Mycobacterium tuberculosis; M. tuberculosis hypoxia-regulated fluorescent reporter, fluorescence; 300,000 compounds, 0.1% hits; fluorescence inhibition, % (no concentration beside the values);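 active = 35 to 45% if threefold the growth effect, above 45% if 1.5-fold the growth effect; inactive = the rest, general growth blockers included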;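 also: wells of about 50 µL received 100 nL stock; 0% = vehicle wells and 100% = reference inhibitor wells; whole bacteria with a GFP reporter of the hypoxia response; strong numbers were not always called active; many hits fall short of the cut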
PrP UTR inh: inhibition of PrP 5' UTR reporter expression. AID 488862. 340,000 compounds, 0.35% hits. inhibition, % (no concentration beside the values). cell-based PrP 5' UTR mRNA reporter, plate reader;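 active = every replicate at 50% or more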;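 also: 0 = median of the neutral control wells; tested in H4 reporter cells; numbers are from one replicate; inactives centre near -14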
Sa RN4220 lethal: kills Staphylococcus aureus RN4220. S. aureus RN4220 growth, OD600, 16 h. inhibition, % (concentration not given with the values). 330,000 compounds, 0.33% hits. AID 1259311;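 active = z-score of -3 or lower and OD600 up to 0.18 on both plates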;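 also: plate controls were untreated cells for no effect and reference antibiotic for full effect; stock transfer was 100 nL into about 80 µL; one replicate is shown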
Autofluor counter: counter-screen for toxin protease inhibitors: compound fluorescence. compound autofluorescence counterscreen, microsphere flow cytometry; hits give high values. fluorescence intensity (concentration not given with the values). 360,000 compounds, 3.1% hits;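 active = at least 3 SD above the mean of all compounds, about 16000 in these data; inconclusive = too few beads counted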;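 also: 100 nL of 1 mM stock went into each well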
Mtb hypoxia rep growth: recorded beside Mtb hypoxia rep, whose call it bears; growth inhibition, %; measured here: M. tuberculosis growth (absorbance);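 0% = vehicle and 100% = reference antibiotic; read after six days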
Active calls of the source: *.

`Cc1ccc(S(=O)(=O)NNC(=O)c2csnn2)cc1` gave BJeLR lethal -1, Sa ugtP lethal -8, Mtb hypoxia rep -6, PrP UTR inh -21, Sa RN4220 lethal 1.5, Autofluor counter 1959 and Mtb hypoxia rep growth 5.
Screening Cc1cccc(NC(=O)CSc2nnc(CNC(=O)c3cccs3)o2)c1C returned BJeLR lethal 0, Sa ugtP lethal 10, Mtb hypoxia rep 14, PrP UTR inh -14, Sa RN4220 lethal 3.8, Autofluor counter 2568 and Mtb hypoxia rep growth 5.
Screening Cc1cccc(NS(=O)(=O)c2cccc3nonc23)c1 returned BJeLR lethal -8, Sa ugtP lethal -2, Mtb hypoxia rep 4, PrP UTR inh -11, Sa RN4220 lethal 6.6, Autofluor counter 4335 and Mtb hypoxia rep growth 2.
For CC(Oc1ccccc1)C(=O)NCc1cccnc1 (stereo not given) the results were BJeLR lethal -6, Sa ugtP lethal -6, Mtb hypoxia rep -4, PrP UTR inh -5, Sa RN4220 lethal -6.4, Autofluor counter 8269 and Mtb hypoxia rep growth -10.
For CC[C@]12C(=O)N(C)CC(C3C(=O)N(Cc4ccccc4)C(=O)C31)N2C(=O)c1ccccc1 (stereo not given in full) the results were Sa ugtP lethal -4, Mtb hypoxia rep 3, Sa RN4220 lethal 6.4 and Mtb hypoxia rep growth 2.
`CC1CN(C(c2ccco2)c2sc3ncnn3c2O)CC(C)O1` (stereo not given) gave BJeLR lethal 1, Sa ugtP lethal -4, Mtb hypoxia rep 15, PrP UTR inh -16, Sa RN4220 lethal -7.0, Autofluor counter 5186 and Mtb hypoxia rep growth 11.
Cc1cc(NS(=O)(=O)c2cc(Cl)sc2Cl)no1 was read as BJeLR lethal -3, Sa ugtP lethal 4, Mtb hypoxia rep 8, Sa RN4220 lethal 6.6, Autofluor counter 3561 and Mtb hypoxia rep growth -1.
Cn1ncc([N+](=O)[O-])c1C(=O)NC1CCCCC1 was read as BJeLR lethal 5, Sa ugtP lethal -7, Mtb hypoxia rep -3, PrP UTR inh 5, Sa RN4220 lethal -3.5, Autofluor counter 4201 and Mtb hypoxia rep growth 0.
`O=C1CCCC(=O)C1CS(=O)(=O)c1ccccc1` gave BJeLR lethal 7, Sa ugtP lethal -3, Mtb hypoxia rep 4, PrP UTR inh -21, Sa RN4220 lethal 2.8, Autofluor counter 3474 and Mtb hypoxia rep growth 10.
COc1cc(C(=O)c2ccccc2Cl)c([N+](=O)[O-])cc1OC was read as BJeLR lethal -9, Sa ugtP lethal -1, Mtb hypoxia rep 5, PrP UTR inh -6, Sa RN4220 lethal 6.9, Autofluor counter 2427 and Mtb hypoxia rep growth 10.
For CSc1ccc(OC2CCN(Cc3ccccc3)CC2)cc1 the results were BJeLR lethal 5, Sa ugtP lethal 72, Mtb hypoxia rep 10, PrP UTR inh -17, Sa RN4220 lethal 6.2, Autofluor counter 2461 and Mtb hypoxia rep growth 4.
`CCOC(=O)/C=c1/s/c(=C/c2ccc3cc(OC)ccc3c2)c(=O)n1CC(=O)NCC1CCCO1` (stereo not given) gave Sa ugtP lethal -3, Mtb hypoxia rep 3, PrP UTR inh -15, Sa RN4220 lethal 2.3, Autofluor counter 4298 and Mtb hypoxia rep growth -5.
Screening O=C(COc1ccccc1)Nc1ncc2c(n1)CCCC2=O returned BJeLR lethal 1, Sa ugtP lethal 0, PrP UTR inh -16, Sa RN4220 lethal 0.9 and Autofluor counter 4155.
COc1ccc(Nc2nc3c(C)cccc3cc2C#N)c(OC)c1 was read as BJeLR lethal 0, Sa ugtP lethal -1, Mtb hypoxia rep 0, PrP UTR inh -2, Sa RN4220 lethal -1.9, Autofluor counter 2139 and Mtb hypoxia rep growth -4.
For CCOC(=O)CN1C(=O)N(CC)C(C)=C(C(=O)OC)C1c1ccccc1 (stereo not given) the results were Sa ugtP lethal 1, Mtb hypoxia rep 4, Sa RN4220 lethal 6.3 and Mtb hypoxia rep growth -2.
For Cc1cccc(-n2cnc(C(=O)NNC(=S)Nc3ccc(Cl)cc3)c2)n1 the results were BJeLR lethal -4, PrP UTR inh -15 and Autofluor counter 3991.
For COc1ccc(C(CC(=O)O)NC(=O)c2ccco2)cc1OC (stereo not given) the results were BJeLR lethal -2, Sa ugtP lethal 10, PrP UTR inh 2, Sa RN4220 lethal -0.3 and Autofluor counter 4796.
Screening CC(C)c1ccc(C(=O)N2CCN(c3cnn(C)c(=O)c3Cl)CC2)cc1 returned BJeLR lethal -17, Sa ugtP lethal -3, Mtb hypoxia rep -5, PrP UTR inh -23, Sa RN4220 lethal -1.9, Autofluor counter 4256 and Mtb hypoxia rep growth 3.
Screening CCN(CC(=O)Nc1c(F)cccc1F)C(=O)CSC(=S)N1CCCC1 returned Sa ugtP lethal -6, Mtb hypoxia rep 0, PrP UTR inh -10, Sa RN4220 lethal -0.9, Autofluor counter 6227 and Mtb hypoxia rep growth 13.
`COc1cccc(C(=O)Nc2nnc(C(C)C)s2)c1` gave BJeLR lethal -3, Sa ugtP lethal 1, PrP UTR inh -28, Sa RN4220 lethal 1.3 and Autofluor counter 2371.
`O=C(Nc1c(C(=O)Nc2ccc3c(c2)OCCO3)cnn1-c1ccccc1Cl)c1ccco1` gave BJeLR lethal -1, Sa ugtP lethal -4, Mtb hypoxia rep 5, PrP UTR inh -38, Sa RN4220 lethal 5.3, Autofluor counter 10911 and Mtb hypoxia rep growth 10.
Screening O=C(O)Cc1ccc2ccc3ccccc3c2c1 returned BJeLR lethal -2, Sa ugtP lethal -13, Mtb hypoxia rep -9, Sa RN4220 lethal 2.2, Autofluor counter 3538 and Mtb hypoxia rep growth 2.
Screening Cc1noc(C)c1COc1cccc(C(=O)Nc2ccc3c(c2)OCO3)c1 returned BJeLR lethal 9, Sa ugtP lethal -4, Mtb hypoxia rep 5, PrP UTR inh -115, Sa RN4220 lethal -2.6, Autofluor counter 4365 and Mtb hypoxia rep growth 3.
For Nc1c(N(CCO)C(=O)/C=C/c2ccco2)c(=O)[nH]c(=O)n1Cc1ccccc1 the results were BJeLR lethal -5, Sa ugtP lethal -7, Mtb hypoxia rep 7, PrP UTR inh 3, Sa RN4220 lethal 2.6, Autofluor counter 4772 and Mtb hypoxia rep growth 9.
`O=c1cc(CN2CCN(C/C=C/c3ccccc3)CC2)c2cc(O)c(-c3ccccc3)cc2o1` gave BJeLR lethal 4, Sa ugtP lethal 23, Mtb hypoxia rep 7, PrP UTR inh -36, Sa RN4220 lethal 38, Autofluor counter 2048 and Mtb hypoxia rep growth 0.
Screening COc1cc(/C=C/c2cc(OC(C)=O)c3ccccc3n2)c(OC(C)=O)c([N+](=O)[O-])c1 returned BJeLR lethal 7, Sa ugtP lethal -18, Mtb hypoxia rep 23, PrP UTR inh -5, Sa RN4220 lethal 14, Autofluor counter 15538 and Mtb hypoxia rep growth -2.
`COc1ccc(NC(=O)c2cccc(N3C(=O)C4C5C=CC(C6CC56)C4C3=O)c2)c(OC)c1` (stereo not given) gave BJeLR lethal -5, Sa ugtP lethal 3, Mtb hypoxia rep 17, PrP UTR inh -93, Sa RN4220 lethal 6.9, Autofluor counter inconclusive and Mtb hypoxia rep growth 2.
For CCCN1CCC(=O)N(C(CSc2ccc(Br)cc2)Cc2ccccc2)CC1 (stereo not given) the results were Sa ugtP lethal 2, Mtb hypoxia rep 14, Sa RN4220 lethal 7.8 and Mtb hypoxia rep growth 13.
For Cc1c(C(=O)O)nnn1-c1ccccc1 the results were BJeLR lethal 9, Sa ugtP lethal -3, PrP UTR inh -11, Sa RN4220 lethal 1.4 and Autofluor counter 2766.
Screening CC(C)C(=O)N1N=C2CCCCC2C1(O)C(F)(F)F (stereo not given) returned BJeLR lethal -6, Sa ugtP lethal -3, Mtb hypoxia rep -1, PrP UTR inh -4, Sa RN4220 lethal 0.6, Autofluor counter 3408 and Mtb hypoxia rep growth 15.
`COC(=O)c1cnn(-c2nc(OC)cc(OC)n2)c1C` gave BJeLR lethal -1, Sa ugtP lethal 3, Mtb hypoxia rep 5, PrP UTR inh -6, Sa RN4220 lethal 6.5, Autofluor counter 2324 and Mtb hypoxia rep growth -9.
CC1CCCC(C)N1C(=O)COC(=O)Cc1c[nH]c2ccccc12 (stereo not given) was read as BJeLR lethal 2, Sa ugtP lethal -7, Mtb hypoxia rep -6, PrP UTR inh 12, Sa RN4220 lethal -1.9, Autofluor counter 7827 and Mtb hypoxia rep growth 8.
CN1N=C2c3ccccc3CCCC2C1c1ccc(F)cc1 (stereo not given) was read as BJeLR lethal 5, Sa ugtP lethal 18, Mtb hypoxia rep 5, PrP UTR inh -36, Sa RN4220 lethal -4.7, Autofluor counter 3723 and Mtb hypoxia rep growth -7.
For CC1CN(C2CCN(C(=O)c3ccccc3)CC2)CC(C)O1 (stereo not given) the results were BJeLR lethal 2, Sa ugtP lethal 14, Mtb hypoxia rep -1, PrP UTR inh 2, Sa RN4220 lethal 6.0, Autofluor counter 16799* and Mtb hypoxia rep growth -3.
Screening O=C(NNC(=O)C1CCCO1)c1ccccc1Cl (stereo not given) returned BJeLR lethal -5, Sa ugtP lethal -10, PrP UTR inh -26, Sa RN4220 lethal 0.1 and Autofluor counter 3032.
Screening COc1cccc(C=NNC(=O)CNC(=O)c2cccnc2)c1O returned Sa ugtP lethal 3, Mtb hypoxia rep 7, Sa RN4220 lethal 3.4 and Mtb hypoxia rep growth 5.
`Cc1ccc(NC(=O)CN(c2ccc(Cl)cc2)S(=O)(=O)c2cc([N+](=O)[O-])ccc2Cl)c(C)c1` gave BJeLR lethal -5, Sa ugtP lethal -7, Mtb hypoxia rep 7, PrP UTR inh -28, Sa RN4220 lethal -11, Autofluor counter 4449 and Mtb hypoxia rep growth 6.
Screening COc1ccc(C(=O)NNC(=O)C(=O)NC(C)c2ccccc2)cc1OC (stereo not given) returned Sa ugtP lethal 5, Mtb hypoxia rep 22, PrP UTR inh -46, Sa RN4220 lethal 4.5, Autofluor counter 4027 and Mtb hypoxia rep growth -6.
N#Cc1sc(NCc2cccc(Cl)c2)nc1Cl was read as BJeLR lethal -5, Sa ugtP lethal -13, Mtb hypoxia rep 4, PrP UTR inh -22, Sa RN4220 lethal -6.5, Autofluor counter 3606 and Mtb hypoxia rep growth 6.
CC(NC(=O)c1ccc(Br)cc1)c1ccccc1 (stereo not given) was read as BJeLR lethal 7, Sa ugtP lethal -2, PrP UTR inh 2, Sa RN4220 lethal 5.1 and Autofluor counter 2520.
For COc1ccccc1N1CCN(C(=O)c2noc(C(C)C)c2[N+](=O)[O-])CC1 the results were BJeLR lethal -4, Sa ugtP lethal 8, Mtb hypoxia rep 4, PrP UTR inh 9, Sa RN4220 lethal 4.9, Autofluor counter 4277 and Mtb hypoxia rep growth -7.
`Cc1ccccc1N1CCN(C(=O)c2ccccc2NC(=O)C2CC=CCC2C(=O)O)CC1` (stereo not given) gave BJeLR lethal 3, Sa ugtP lethal 8, PrP UTR inh -14, Sa RN4220 lethal -0.3 and Autofluor counter 4917.
`CCOc1ccc(Cc2nnc(SCC(=O)c3ccc(OC)cc3)o2)cc1` gave BJeLR lethal 1, Sa ugtP lethal 7, Mtb hypoxia rep 7, PrP UTR inh -15, Sa RN4220 lethal 4.0, Autofluor counter 11030 and Mtb hypoxia rep growth 11.

Gathered by group, those above with an aryl thioether with sulfur outside any ring
Screening Cc1cccc(NC(=O)CSc2nnc(CNC(=O)c3cccs3)o2)c1C returned BJeLR lethal 0, Sa ugtP lethal 10, Mtb hypoxia rep 14, PrP UTR inh -14, Sa RN4220 lethal 3.8, Autofluor counter 2568 and Mtb hypoxia rep growth 5.
For CSc1ccc(OC2CCN(Cc3ccccc3)CC2)cc1 the results were BJeLR lethal 5, Sa ugtP lethal 72, Mtb hypoxia rep 10, PrP UTR inh -17, Sa RN4220 lethal 6.2, Autofluor counter 2461 and Mtb hypoxia rep growth 4.
For CCCN1CCC(=O)N(C(CSc2ccc(Br)cc2)Cc2ccccc2)CC1 (stereo not given) the results were Sa ugtP lethal 2, Mtb hypoxia rep 14, Sa RN4220 lethal 7.8 and Mtb hypoxia rep growth 13.
`CCOc1ccc(Cc2nnc(SCC(=O)c3ccc(OC)cc3)o2)cc1` gave BJeLR lethal 1, Sa ugtP lethal 7, Mtb hypoxia rep 7, PrP UTR inh -15, Sa RN4220 lethal 4.0, Autofluor counter 11030 and Mtb hypoxia rep growth 11.

No enrichment for hits (roughly 4% active in at least one column).
